Bioassay records deposited in PubChem by several laboratories.
eIF4H FP inh = human eIF4H binding inhibitors, primary screen, translation initiation inhibitor project, biochemical, uHTS, fluorescence polarization. Eukaryotic translation initiation factor 4H (Homo sapiens), Q15056. eIF4H fluorescence polarization binding assay. inhibition, % at 35 µM. 290,000 tested, 0.94% active. AID 2012, 2009;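 active means 50% or more with normal probe brightness, or confirmed in later tests; inconclusive means above 50% with abnormal brightness, or retests that disagree; inactive means below 50% or failed in later tests; about a fifth of its hits are not listed in these tables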;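 further: calls also rest on retests at 20 µM and on dose response follow-up; 0% = protein and probe with vehicle and 100% = probe without protein; strong numbers were not always called active; many hits fall short of the cut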
MT1-MMP act inh = blockers of MT1-MMP proenzyme processing, primary screen, HT1080 RFP-PRO-GFP cells, GFP/RFP fluorescence; Matrix metalloproteinase-14 (Homo sapiens), P50281; GFP/RFP ratio fluorescence, overnight; percent of plate control window, DMSO zero; GFP/RFP ratio change, % at 20 µM; 360,000 tested, 0.061% active; AID 651647, 2012;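 active means GFP/RFP ratio change of at least 30% with cell ATP level not reduced by more than half and red fluorescence within 50% of control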; further: strong numbers were not always called active
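Assay system – RFP-PRO-GFP reporter HT1080 cells · Compound dosing – single dose of 20 µM compound, 1% DMSO final · Incubation – overnight compound exposure at 37 °C · Measure – GFP/RFP fluorescence ratio · Benchmarks – DMSO wells and RFP-L50D-GFP cells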
Env fusion inh = inhibitors of HIV-1 Env-driven cell-cell fusion, primary screen, HeLa-JRFL effector, CEM21 target cells, luciferase; AID 651610, 2012; inhibition, % at 12.3 µM; 360,000 tested, 1.1% active;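 active means mean replicate inhibition score of at least 50 and every replicate individually at or above 50; inconclusive means only one of the two criteria met; inactive means mean below 50 and not all replicates reaching 50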;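 further: 0% = plate neutral controls and 100% = maraviroc near 300 nM; one replicate is shown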
PABP FP inh = PABP poly(A) RNA binding inhibitors, primary screen, biochemical, fluorescence polarization, uHTS. Polyadenylate-binding protein 1 (Homo sapiens), P11940. inhibition, % at 35 µM. 290,000 tested, 1% active. AID 2014, 2009;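 active means 50% or more with normal probe brightness, or confirmed in later tests; inconclusive means above 50% with abnormal brightness, or retests that disagree; inactive means below 50% or failed in later tests; about a fifth of its hits are not listed in these tables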;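 further: calls also rest on retests at 20 µM and on dose response follow-up; controls were probe without protein and protein plus probe with vehicle; some compounds called inactive have numbers as strong as hits; many hits fall short of the cut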
Target sequence (P11940 whole entry, looked up): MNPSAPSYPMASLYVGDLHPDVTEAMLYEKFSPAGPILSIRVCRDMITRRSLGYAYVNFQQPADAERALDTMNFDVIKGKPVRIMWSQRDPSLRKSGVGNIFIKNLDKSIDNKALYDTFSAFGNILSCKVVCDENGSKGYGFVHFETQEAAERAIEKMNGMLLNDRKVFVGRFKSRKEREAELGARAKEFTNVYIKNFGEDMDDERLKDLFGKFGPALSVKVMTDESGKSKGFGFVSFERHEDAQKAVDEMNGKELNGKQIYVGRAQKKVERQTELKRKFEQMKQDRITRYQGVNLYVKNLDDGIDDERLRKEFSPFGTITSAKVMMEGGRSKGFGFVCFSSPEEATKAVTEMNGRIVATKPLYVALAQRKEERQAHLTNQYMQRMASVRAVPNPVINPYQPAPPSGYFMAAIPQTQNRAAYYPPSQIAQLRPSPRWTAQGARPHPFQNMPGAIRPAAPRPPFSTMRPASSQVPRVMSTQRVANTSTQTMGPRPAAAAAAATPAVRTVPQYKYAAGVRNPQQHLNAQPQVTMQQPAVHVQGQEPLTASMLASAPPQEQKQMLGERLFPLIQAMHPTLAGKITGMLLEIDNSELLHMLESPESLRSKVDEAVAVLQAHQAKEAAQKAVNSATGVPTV
CSC inhib = cancer stem cell viability inhibitors, primary screen, luminescence; cancer stem cell-like cells viability; inhibition, % at 7.5 µM; 300,000 tested, 1.1% active;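 active means mean at 75% or more and at least half the replicates too; inconclusive means mean and replicates disagree; tested in HMLE shEcad cells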;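 further: 0% = median of negative and 100% = median of positive control wells; the first replicate is given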
Rce1 inh = yeast Rce1p protease inhibitors, primary screen, biochemical, fluorescence, cell-free homogeneous; CAAX prenyl protease 2 (Saccharomyces cerevisiae (strain ATCC 204508 / S288c)), Q03530; yeast membranes, quenched prenylated peptide cleavage fluorescence; calls only; 290,000 tested, 0.27% active;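 active means fall in fluorescence gain of 50% or more versus controls, with final raw signal at or below 3038400; inconclusive means same 50% fall but final raw signal above 3038400; inactive means fall in fluorescence gain under 50%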;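 further: plate controls were neutral control wells for no effect and wells lacking membranes for full effect; tested at 10 µM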
Yeast UUG start = modulators of yeast start codon fidelity, primary screen, whole organism, S. cerevisiae, single point, plate reader; S. cerevisiae UUG-firefly luciferase reporter, luminescence/redox ratio; activity score, % at 18.7 µM; 350,000 tested, 0.13% active;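 active means replicate mean at a twofold rise or more, about +100% in these data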;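 further: firefly luciferase made from a UUG start codon reports start codon fidelity; reporter light over untreated wells divided by growth signal over untreated wells; some hits fall short of that in this replicate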
MT1-MMP act inh RFP = further read-out of MT1-MMP act inh, marked with its call; RFP signal change, %; measured here: RFP expression control read;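 0 = vehicle wells; hits needed this value within 50% of zero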
The depositor's hits bear a star; i = inactive; ? = inconclusive; . = no result given. The order is random, and some 3% of all compounds hit somewhere here.

structure,eIF4H FP inh,MT1-MMP act inh,MT1-MMP act inh RFP,Env fusion inh,PABP FP inh,CSC inhib,Rce1 inh,Yeast UUG start
Nc1ccn(-c2ncc(C(F)(F)F)cc2Cl)c(=O)n1,40,-7,4,2,5,-8,i,.
Cc1cccc(C)c1OCc1n[nH]c(=S)o1,-5,2,3,.,-6,12,i,.
O=C(Nc1csc(Cl)c1)c1ccccc1,.,-1,-5,-41,.,0,i,-7
O=C(O)c1ccc(N/N=C/c2c(F)cccc2Cl)cc1,4,-3,0,50,-2,-9,i,-68
Cn1nnnc1SCC(=O)Nc1ccc2c(c1)OCCO2,1,-1,-2,1,-2,-3,i,-35
Cc1ccc(C)c(NC(=O)CN(C)C(=O)COc2ncnc3sccc23)c1,4,3,4,2,-12,-12,i,5
CCn1nc([N+](=O)[O-])c(C(C#N)c2nc3ccccc3n2C)c(Cl)c1=O (centres undefined),34,14,-1,23,-12,30,i,-9
O=C(N/N=C/c1cc([N+](=O)[O-])ccc1O)c1ccc2c(c1)OCCO2,6,3,-3,2,-6,11,i,-17
CCOc1ccc(N2CC(C(=O)NCCc3ccc(F)cc3)CC2=O)cc1 (centres undefined),11,2,1,3,2,.,i,-18
CCOC(=O)C(CC)n1cnc2c(nnn2-c2ccc(C)cc2)c1=O (centres undefined),-11,7,0,-76,1,-5,i,-4

New compounds follow
structure,eIF4H FP inh,MT1-MMP act inh,MT1-MMP act inh RFP,Env fusion inh,PABP FP inh,CSC inhib,Rce1 inh,Yeast UUG start
COc1ccc(C(=O)NCc2ccc(-n3cccc3)cc2)cc1OC,1,-2,-2,20,-15,.,i,-4
COC(=O)C1=C(Nc2ccccc2NS(=O)(=O)c2ccc(C(F)(F)F)cc2Cl)CSC1,-10,-2,-1,-5,-10,46,i,-10
CCOc1ccc(OCC)c(NC(=O)CSc2nc3c(c(=O)n(C)c(=O)n3C)n2C(C)C)c1,7,0,-11,.,6,-12,i,-3
Cc1ccccc1OCC(=O)Nc1ccccc1C(=O)N1CCCCC1,6,0,-2,6,-5,-20,i,14
O=C(NCC(=O)N1CCN(S(=O)(=O)c2ccccc2F)CC1)c1ccc2ccccc2c1,.,6,1,4,.,6,.,.
Cc1ccc(OCC(=O)NCCNC(=O)c2ccco2)cc1C,-4,4,5,-15,4,.,i,-4
Cc1ccc(NC(=S)N2CCCC(O)C2)cc1 (centres undefined),-8,1,5,-4,-8,12,i,.
COc1ccccc1/C=N/n1c(N)c(S(=O)(=O)c2cccs2)c2nc3ccccc3nc21,2,5,5,-40,20,.,i,-18
c1ccc(-c2nnc(-c3ccccn3)nc2NC2CCCCC2)cc1,5,4,-10,-264,-11,-11,i,-72
Cn1c(SCC(=O)N=Nc2c(O)[nH]c3ccccc23)nc2ccccc21,-9,.,.,.,9,-2,i,.

(further entries)
structure,eIF4H FP inh,MT1-MMP act inh,MT1-MMP act inh RFP,Env fusion inh,PABP FP inh,CSC inhib,Rce1 inh,Yeast UUG start
CN(CCC(=O)Nc1ccc(Br)cc1)Cc1ccccc1,-8,2,-3,.,-7,12,i,-4
O=C(Nc1cccc(OC(=O)c2ccco2)c1)c1ccco1,-10,2,-2,-98,1,3,i,-12
Cc1nnc(SCC2=C(C(=O)O)N3C(=O)C(NC(=O)Cn4ncc(Cl)c4C)C3SC2)s1 (centres undefined),22,-5,5,4,-3,-9,i,.
Cc1ccc(OCCC(=O)OCC(=O)NNC(=O)c2ccccc2)cc1,.,-2,-3,-4,.,-6,i,10
Cc1nc(S(=O)(=O)Cc2ccccc2)nc2c1CCC2,0,1,2,-16,9,-6,i,7
CC(=O)Nc1cc2c(cc1C(=O)c1ccccc1)OCCO2,-15,-1,1,.,-7,-2,i,-14
CCCSc1nnc(NC(=O)Nc2ccc(F)cc2)s1,0,-29,-39,.,-6,38,i,-20
NC(=S)N=Nc1ccc(NN=C(N)N)cc1,7,8,-2,-7,9,-12,i,0
CCCCCCCCCCCCCC(=O)O,.,-1,4,.,.,-2,.,4
Cc1nc2ccccc2nc1N1CCC(C)CC1,-4,-7,3,-43,-2,41,i,0

Following part
structure,eIF4H FP inh,MT1-MMP act inh,MT1-MMP act inh RFP,Env fusion inh,PABP FP inh,CSC inhib,Rce1 inh,Yeast UUG start
Cc1cccc(-n2c(CCCN3C(=O)c4ccccc4C3=O)nc3ccccc3c2=O)n1,-1,5,6,.,-10,.,.,-16
CCOc1cc2c(cc1OCC)CN(C(=O)c1cccc(S(=O)(=O)N3CCCC3)c1)CC2,.,-1,-6,-3,.,-8,.,4
O=C(O)c1nn2c(C(F)(F)F)cc(-c3cccs3)nc2c1Cl,6,2,6,-6,-8,.,i,.
CCOC(=O)C1=C(CSc2nc3ccccc3s2)NC(=O)NC1c1cccc([N+](=O)[O-])c1 (centres undefined),4,3,2,.,-7,-8,i,.
Cc1ccc(NC(=O)c2oc3ccc(S(=O)(=O)N4CCOCC4)cc3c2C)cc1C,-5,8,3,-14,-4,-6,i,-10
COc1ccc(C=O)cc1COc1ccc(F)cc1F,0,-3,-2,-41,-3,-3,i,-11
COc1cccc(CC(NC(C)=O)C(=O)NC2CCN(C(=O)c3ccc(Cl)cc3)CC2)c1 (centres undefined),-2,6,5,1,9,.,i,9
O=C(c1ccco1)N1CCN(C(=O)c2ccccc2OCc2ccc(Cl)cc2)CC1,.,-5,-2,0,.,-19,i,-10
Cc1ccc(NC(=O)NCCN2CCN(C(=O)Nc3ccc(C)cc3)CC2)cc1,4,4,5,-4,-1,-17,i,4
CC(C)[C@H](NC(=O)c1cccc(S(=O)(=O)N2CCOCC2)c1)C(=O)Nc1nccs1,2,-4,2,2,-19,-10,i,-12

The listing continues:
structure,eIF4H FP inh,MT1-MMP act inh,MT1-MMP act inh RFP,Env fusion inh,PABP FP inh,CSC inhib,Rce1 inh,Yeast UUG start
CCOC(=O)CSC(CC)C(=O)Nc1nnc(C(C)C)s1 (centres undefined),1,-5,4,.,-14,-9,i,11
CC(C)CCN1CN(S(=O)(=O)c2cccs2)c2nc3ccccc3nc21,2,5,1,.,2,-7,i,2
CCN(Cc1ccccc1)C(=O)CSc1nc(C)cc2c1C(=O)OC2,2,3,-3,.,-6,3,i,-5
Cc1ccc(S(=O)(=O)N2CCCC2C(=O)Nc2nc3c(s2)CCCC3)cc1 (centres undefined),-6,-4,-15,.,1,.,i,-8
Nc1[nH]ncc1-c1ccc(Cl)cc1,6,-7,-4,11,3,-4,i,-3
COc1ccc(O)c(C(=O)c2cc(SCC(=O)O)c3nc4sc5c(c4c(=O)n3c2)CCCC5)c1,81*,-8,1,-7,80*,27,i,.
CC(OC(=O)Cc1c(F)cccc1Cl)C(=O)NC1CCCCC1C (centres undefined),.,2,4,-19,.,-9,.,-15
Cc1occc1C(=O)Nc1ccc(S(N)(=O)=O)cc1,6,2,2,-5,-8,-16,i,.
COc1ccc(-c2csc(NC(=O)c3ccc(S(=O)(=O)N4CCc5ccccc5C4)cc3)n2)c(OC)c1,-2,-2,-16,?,3,.,i,.
O=C(CN1CCN(c2ccccc2)CC1)c1ccc2cc[nH]c2c1,8,6,6,-26,5,-12,i,-20

(more compounds)
structure,eIF4H FP inh,MT1-MMP act inh,MT1-MMP act inh RFP,Env fusion inh,PABP FP inh,CSC inhib,Rce1 inh,Yeast UUG start
CC1(C(=O)NS(=O)(=O)C2CC2)CCCN(C(=O)Cc2ccc(F)cc2)C1 (centres undefined),.,0,5,-14,.,.,.,-6
CC(C)Nc1nc(SCC(N)=O)nc(N2CCOCC2)n1,0,-3,0,-11,4,.,i,-16
Cc1cc(C)c2[nH]c(=O)c(CN(Cc3nnnn3C3CCCC3)C3CCCCC3)cc2c1,1,-1,-3,.,-6,.,i,-10
CCc1nn(CC(=O)NCCc2ccc(S(N)(=O)=O)cc2)c(=O)c2cc3sccc3n12,-8,-1,-3,.,13,-12,i,-16
O=C(COc1ccccc1)OCc1cc2ccccc2[nH]c1=O,-3,9,7,.,4,-24,i,.
O=C(COC(=O)C1CC2CCCC(C1)C2=O)NC(=O)c1ccc(OC(F)F)cc1 (centres undefined),8,-2,2,0,7,7,i,-16
Cc1cccc(C)c1C(=O)N[C@@H](Cc1ccccc1)C(=O)O,8,1,1,11,8,7,i,3
O=C(Cc1ccc(F)cc1)NCCc1ccccc1,4,0,-2,.,-6,-9,i,-19
CCC(C)(C)NC(=O)C(c1ccc(OC)cc1)N(C(=O)CCC(=O)Nc1cc(C)on1)c1cccc(OC)c1 (centres undefined),-8,-3,-3,-33,12,-24,i,6
Cc1ccccc1N(CC(=O)Nc1ccccc1C(=O)NCc1ccco1)S(=O)(=O)c1ccccc1,-9,-6,-9,21,-6,11,i,-4

Further compounds follow:
structure,eIF4H FP inh,MT1-MMP act inh,MT1-MMP act inh RFP,Env fusion inh,PABP FP inh,CSC inhib,Rce1 inh,Yeast UUG start
O=C(OCc1nnc(-c2ccccc2)o1)c1cc(Cl)ccc1[N+](=O)[O-],-3,3,2,12,-10,12,i,.
COc1ccc(CCN2CC(C(=O)Nc3cc(S(C)(=O)=O)ccc3Cl)CC2=O)cc1OC (centres undefined),.,3,3,4,.,.,.,-13
CN(C)/C=C1\C(=O)N(c2ccc(F)cc2F)C(c2cccnc2)S1(=O)=O (centres undefined),11,0,3,5,0,-9,i,-3
CC(C)NC(=O)c1ccc(N(Cc2ccccc2)S(C)(=O)=O)cc1,-4,-2,-2,19,2,-17,i,-13
Cc1ccccc1OCC(=O)NCCNC(=O)c1cccnc1,-11,1,3,11,-4,.,i,-8
COc1ccccc1N=Nc1c(C)noc1C,-5,5,6,6,8,-10,i,.
CCN(CC)S(=O)(=O)c1cc(NC(=S)NC(=O)C2CCCC2)ccc1C,.,16,-18,11,.,-7,.,-3
CN1C(=O)[C@H]2[C@@H](/C=C/c3ccccc3)N3C(=O)CN(Cc4ccc(-c5ccccc5)cc4)C(=O)[C@@]3(C)[C@H]2C1=O,.,5,-3,37,.,-4,.,-7
COC(=O)CNC(=O)c1ccccc1[N+](=O)[O-],.,0,-1,.,.,3,i,0
CCOc1ccc(-n2ccnc2SCC(=O)Nc2cc(C)on2)cc1,-3,3,-7,4,-4,3,i,3
CCCCn1c(/N=C/c2ccccc2NS(=O)(=O)c2ccc(C)cc2)nc2ccccc21,16,1,-2,-6,3,23,.,-2
CC(NC(=S)NC1CCCCC1)c1ccc(C(C)(C)C)cc1 (centres undefined),-3,4,-17,?,-14,45,i,-23
